Bioassay records (PubChem)
Bst PK mod = pyruvate kinase (B. stearothermophilus) modulation | partly purified Bacillus stearothermophilus pyruvate kinase, luminescence ATP production; ribose 5-phosphate activator present at AC10 | Potency, µM | AID 361 | 51,000 tested, 1.2% active; in the data active means potency below about 11 µM; inconclusive means mostly about 12 µM to 25 µM; inactive means weaker than that;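 the screen sought inhibitors and activators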;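 further: potency means the concentration at half of the fitted maximal effect; scaled between full activation by ribose 5 phosphate and full inhibition by luteolin; about four in five hits inhibit and the cells do not say which; series up to 57 µM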
YjeE inh = displaces an ADP probe from E. coli YjeE (TsaE) | P0AF67 | purified YjeE, fluorescence polarisation of a bound ADP probe | Potency, µM | 71,000 tested, 0.05% active | AID 605; active = well fitted falling curve; inconclusive = weaker or top-dose-only fall, or a rising curve; inactive = flat or poorly fitted curve;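 further: top concentration of the series not given in the record; excess ADP was the control for the full effect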
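Purified YjeE (10 uM) with BODIPY Texas Red-labeled ADP probe (2 uM); compounds pin-transferred, 15 min at room temperature. Binding inhibition read as decreased fluorescence polarization; ADP titration as control.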
Starred values were filed as active, the others as inactive; i = inactive; ? = inconclusive; / = no result given.

Molecule | Bst PK mod | YjeE inh
Cc1nc(NC(=O)c2cc3c(s2)CCCCC3)sc1C(=O)N(C)C | >57 | i
CN1C(=C2C(=O)OC(C)(C)OC2=O)Sc2ccccc21 | i | i
COc1ccc(-c2nc3cnc(N4CCNCC4)nc3n(CCc3ccccc3)c2=O)cc1 | / | i
O=C(O)CNC1=NCCC1 | >57 | i
CC(C)NC(=O)Cn1nnc(-c2ccc(Cl)cc2)n1 | >57 | i
CC(C)C(NS(=O)(=O)c1ccc(Br)s1)C(=O)O (stereo not drawn) | >57 | i
Cc1c(C(=O)O)c2cc(O)ccc2n1-c1ccccc1 | >57 | i
COCCCn1c(=N)c(C(=O)NCc2ccc3c(c2)OCO3)cc2c(=O)n3ccccc3nc21 | >57 | i
Cc1ccc(-n2ncc3c(Nc4c(C)n(C)n(-c5ccccc5)c4=O)ncnc32)c(C)c1 | >57 | i
COc1ccc(NC(=O)N(C2CCCCC2)C(C)c2ccco2)c(OC)c1 (stereo not drawn) | >57 | i
N#Cc1ccccc1Cn1c(=O)n(Cc2ccc(C(=O)NCc3ccco3)cc2)c(=O)c2ccccc21 | >57 | i
O=C(NCc1ccccn1)C1CCC(=O)N1C1CCCC1 (stereo not drawn) | / | i
COCC(=O)Nc1nnc(-c2cccs2)s1 | >57 | i
Fc1ccc(NCc2cn3ccccc3n2)cc1 | / | i
O=C(COc1ccc2oc3c(c2c1)CCCC3)Nc1ccccn1 | >57 | i
CCN(CC)CCOC(=O)c1c(C)n(C)c2ccc(OC)cc12 | >26 | /
O=c1cc(N2CCOCC2)oc2c(-c3ccccc3)cccc12 | / | i
COc1ccc(C)cc1NS(=O)(=O)c1ccc(NS(=O)(=O)c2ccc(NC(C)=O)cc2)cc1 | / | i
Cc1ccnc2c1NC(=O)c1cccnc1N2C1CC1 | >57 | i
CCOC(=O)c1ccc(S(=O)(=O)n2c(CN3CCCCC3)nc3ccccc32)cc1 | >57 | i

Part of the list above in a different format.
COc1ccc(C)cc1NS(=O)(=O)c1ccc(NS(=O)(=O)c2ccc(NC(C)=O)cc2)cc1
  Bst PK mod: /; YjeE inh: i
Cc1ccnc2c1NC(=O)c1cccnc1N2C1CC1
  Bst PK mod: >57; YjeE inh: i
CCOC(=O)c1ccc(S(=O)(=O)n2c(CN3CCCCC3)nc3ccccc32)cc1
  Bst PK mod: >57; YjeE inh: i

(more compounds)
Molecule | Bst PK mod | YjeE inh
N#Cc1ccc(CN2CCC3(CC2)CCN(C(=O)c2ccco2)CC3)cc1 | / | i
CC1CC=C2C(C#N)=C(N)C(C#N)(C#N)C(c3cccs3)C2C1 (stereo not drawn) | >57 | i
O=C(CSc1nnc(-c2cnccn2)n1Cc1ccco1)c1ccc(Cl)cc1 | >57 | i
CCOC(=O)c1ccc(S(=O)(=O)N2CCC(C(=O)OCC)CC2)cc1 | >57 | i
O=S(=O)(c1ccc(S(=O)(=O)N2CCN(Cc3ccccc3)CC2)cc1)N1CCOCC1 | >57 | i
CCN(CC)C(=O)c1cc(-c2ccccc2OC)on1 | >57 | i
C=CCn1c(SCC(=O)Nc2cc3oc4ccccc4c3cc2OC)nnc1-c1cnccn1 | >57 | i
Nc1ccc(S(=O)(=O)c2ccc(NC(=O)c3cccnc3)cc2)cc1 | / | i
Cn1c(=O)c2c(nc(Br)n2Cc2ccc3ccccc3c2)n(C)c1=O | >26 | /
O=C(NCCN1CCOCC1)c1ccncc1 | >57 | i
Cc1ccc2cc3cc(C(=O)NCCCN4CCCCCC4)oc3nc2c1 | ? | i
COc1ccc(S(N)(=O)=O)cc1C(=O)NCC1(N2CCCCC2)CCCCC1 | >57 | i
CC(C)(C)OC(=O)NCCC(=O)Oc1ccc2ccc(=O)oc2c1 | >26 | /
Cc1nc(SCC(=O)Nc2cccc(Cl)c2)n[nH]1 | / | i
CCn1c(=N)c(C(=O)OC)cc2c(=O)n3ccccc3nc21 | >57 | i
O=C(NC1CCCC1)c1cnn2c(C(F)(F)F)cc(-c3ccco3)nc12 | >57 | i
CN1CCN(Cc2nc3c(c(=O)n(C)c(=O)n3C)n2Cc2ccccc2Cl)CC1 | / | i
O=C(CNS(=O)(=O)c1cccs1)Nc1ccc2c(c1)OCCO2 | >57 | i
COc1ccc(C(=O)N2CCSC2=S)cc1OC | >57 | i
Cc1cc(C)c(NC(=O)C2CCCN2CCO)c(C)c1 (stereo not drawn) | >57 | i

(further entries)
Molecule | Bst PK mod | YjeE inh
O=C1N=C(N2CCOCC2)CS1 | >57 | i
O=C(NCCCn1ccnc1)c1ccc2c(c1)OCCO2 | >57 | i
CCOC(=O)CCc1c(C)nc(SCCCn2c(=O)[nH]c3ccccc32)c(C#N)c1C | >57 | i
Cc1nc2sccn2c1-c1nc(C2CC2)c(C(=O)c2ccc3c(c2)NC(=O)CO3)s1 | >57 | i
CC(Oc1ccccc1)C(=O)Nc1ccc(S(=O)(=O)N2CCOCC2)cc1 (stereo not drawn) | / | i
Cc1ccc2cc(CN(CCN3CCCC3)C(=O)Nc3ccc(F)cc3)c(=O)[nH]c2c1C | >57 | i
CCOC(=O)N1CCN(C(=O)CSc2nnc(-c3cc(OC)ccc3OC)o2)CC1 | >57 | i
c1ccc(C2=Nn3c(nnc3-c3cc(-c4ccccc4)n[nH]3)SC2)cc1 | >11 | i
O=C(CSc1nnc(COc2ccccc2)n1Cc1ccco1)c1ccc(F)cc1 | >57 | i
COCC(=O)NCc1ccc2c(c1)cc(C)n2C | >57 | i
CCN[C@@H]1C[C@H](N)[C@H](O[C@H]2OC(CN)=CC[C@H]2N)[C@@H](O)[C@H]1O[C@H]1OC[C@@](C)(O)[C@@H](NC)[C@@H]1O | / | i
O=C(c1ccc2c(c1)OCCO2)C1CCN(C(=O)c2ccc(F)cc2)CC1 | >57 | i
Cc1ccc(-c2noc(CN3CCN(c4ccccc4F)CC3)n2)cc1 | / | i
Cc1cc(NC(=O)Nc2ccc(F)c(Cl)c2)no1 | >57 | i
O=c1cnc2cnc(N3CCNCC3)nc2n1C1CC1 | / | i
COc1ccccc1-n1nnnc1SCc1ccccc1 | >57 | i
Cc1ccc(N2Cc3ccccc3OC(C)C2=O)cc1 (stereo not drawn) | / | i
Cc1ccc(C(=O)OCC(=O)c2ccc(Cl)s2)s1 | i | i
Cc1ccc(-c2ccc(OCC(=O)N3CCOCC3)cc2)cc1 | / | i
O=C(NCc1ccccc1)N1CCC(c2nc3ccccc3[nH]2)CC1 | >57 | i

Additional entries.
Molecule | Bst PK mod | YjeE inh
Cc1nn(CCO)c2c1C(=O)CCC2 | >26 | /
Cn1c(=O)c2c(nc(NC3CCCCC3)n2CC(=O)C23CC4CC(CC(C4)C2)C3)n(C)c1=O | >57 | i
CN(c1cccc(NC(=O)c2ccccc2N(C)S(C)(=O)=O)c1)S(C)(=O)=O | >57 | i
COc1ccc(C2CC(c3cccc(OC)c3)n3nc(N)nc3N2)cc1 (stereo not drawn) | / | i
O=C(Nc1ccc(F)cc1F)c1ccco1 | >57 | i
Cc1nc(NCCCn2ccnc2)c2oc3ccccc3c2n1 | >57 | i
O=C(CC1Nc2ccccc2NC1=O)NC1CCCCC1 (stereo not drawn) | >57 | i
Cc1c(CCC(=O)O)c(=O)oc2cc(O)ccc12 | / | i
O=C(NC1CS(=O)(=O)CC1NCc1ccccc1)c1ccccc1 (stereo not drawn) | >57 | i
COc1ccc(C2C3=C(CC(C)(C)CC3=O)N(CCN3CCOCC3)C3=C2C(=O)CC(C)(C)C3)cc1 | >57 | i
Cc1ccc2cccc(OC(=O)c3ccc4c(c3)OCCO4)c2n1 | / | i
O=S(=O)(O)[C@@H](c1ccccc1)[C@@H](O)c1ccccc1 | / | i
CC(=O)Nc1cc2c(=O)n(Cc3ccccc3)c(C)nc2cc1N1CCOCC1 | >57 | i
CCOCCCNC(=O)C1CCN(S(=O)(=O)CC)CC1 | >57 | i
CCOC(=O)c1c(NC(=O)c2ccoc2C)sc2c1CCC2 | >57 | i
COc1ccc(CCNS(=O)(=O)c2ccc3c(c2)oc(=O)n3C)cc1OC | / | i
Cc1ccc2cc(CCNC(=O)C(C)C)c(=O)[nH]c2c1 | / | i
Cc1nc2ncnn2c(C)c1CCC(=O)Nc1ccc(S(=O)(=O)N2CCCCCC2)cc1 | >57 | i
Cc1cc(NC(=O)CCN2C(=O)c3ccccc3C2=O)no1 | >57 | i
COc1ccc(Oc2ncc3nc(-c4ccc(OC)cc4)c(=O)n(C4CC4)c3n2)cc1 | / | i

(list continues)
Molecule | Bst PK mod | YjeE inh
CC1CN(S(=O)(=O)c2ccc(Cl)c(C(F)(F)F)c2)CC(C)O1 (stereo not drawn) | >57 | i
Cc1c(NS(=O)(=O)c2cccs2)c(=O)n(-c2ccccc2)n1C | >57 | i
CCOC(=O)N1CCC(NS(=O)(=O)c2ccc3c(c2)OCC(=O)N3)CC1 | >57 | i
COc1ccc(CNC(=O)c2ccc(NS(=O)(=O)c3c(C)noc3C)cc2)cc1 | >57 | i
O=C1C(Cl)=C(N2CCN(Cc3ccccc3)CC2)C(=O)N1c1ccccc1 | >57 | i
Cc1cc(=O)oc(C)c1C(=O)NCCc1ccccc1 | >26 | /
Cn1c(=O)c2c(nc(N3CCOCC3)n2CC(=O)C23CC4CC(CC(C4)C2)C3)n(C)c1=O | >57 | i
CCC(=O)N(c1ccc(F)cc1)C1C=CS(=O)(=O)C1 (stereo not drawn) | >57 | i
COc1ccc(CCn2c(N)c(C(=O)NCc3ccco3)c3nc4ccccc4nc32)cc1OC | >57 | i
CN1C(=O)N(C)C2(c3ccccc3)N(C)C(=O)NC12c1ccccc1 (stereo not drawn) | >57 | i
COCC(=O)Nc1nc2n(n1)C(c1ccc(OC)cc1)CC(c1ccc(OC)cc1)N2 (stereo not drawn) | >57 | i
COc1cccc(N2CCN(C3CC(=O)N(c4ccc(F)c(Cl)c4)C3=O)CC2)c1 (stereo not drawn) | >57 | i
CS(=O)(=O)Nc1cccc(-c2nccc(Nc3ccc(F)cc3)n2)c1 | / | i
CC(C)Sc1nc(N2CCOCC2)c2c(c1C#N)CC(C)(C)SC2 | >57 | i
O=C(CS(=O)CC(=O)N(CC(=O)NC1CCCC1)C1CCCC1)Nc1ccc(F)cc1 (stereo not drawn) | >57 | i
O=C(COC(=O)CCOc1ccccc1)NCc1ccco1 | >57 | i
CCNc1ncc2nc(-c3ccc(Cl)cc3)c(=O)n(-c3ccc(OC)cc3)c2n1 | / | i
CCSc1nc2c(c(=O)n1CC)SC(C)C2 (stereo not drawn) | >57 | i
S=c1[nH]c2ccc(Cl)cc2[nH]1 | >11 | i
NC(=O)NC(Cc1ccccc1)C(=O)NCC1(N2CCCCC2)CCCCC1 (stereo not drawn) | >57 | i

(further entries)
Molecule | Bst PK mod | YjeE inh
O=C(Nc1ccc2c(c1)OCO2)C1CCN(S(=O)(=O)c2cccc3cccnc23)CC1 | 6.7* | i
COc1cccc(C(=O)N2CCCC(c3nc(-c4cccs4)no3)C2)c1 (stereo not drawn) | >57 | i
COc1ccc(C(=O)CSc2nnc(Cn3cnc4ccccc43)o2)cc1 | >57 | i
CCn1c(=S)sc2c(=O)n(-c3ccccc3)c(SC)nc21 | >57 | i
COc1ccc(CNC(=O)c2cccc(N3CCCC3=O)c2)cc1 | >57 | i
COc1ccc2c(c1OC)C(=O)N(C(C)C(=O)O)C2=O (stereo not drawn) | >57 | i
N#CC1=C2SCCN2C(=O)C(C#N)C12CCCCC2 (stereo not drawn) | >57 | i
CCn1ncc(Cl)c1C(=O)Nc1ccncc1 | >57 | i
COc1cc2c(cc1OC)-c1cc(NC3CCCCC3)nc(=O)n1CC2 | >57 | i
COc1cccc(CNC(=O)CN(C)S(=O)(=O)c2cnc[nH]2)c1 | >57 | i
O=C(CSc1nnc(-c2cccnc2)n1Cc1ccco1)N1c2ccccc2Sc2ccccc21 | >57 | i
Cc1ccccc1N1CCN(C(=O)CN2C(=O)c3ccccc3C2=O)CC1 | / | i
N=c1ccn(Cc2cccc(Cl)c2)cc1 | >57 | i
CCn1c(SCc2ccc(C)cc2)nnc1-c1cnccn1 | >57 | i
c1ccc(Cn2nnc3c(Nc4ccc5c(c4)OCO5)nc(C4CC4)nc32)cc1 | >57 | i
Cc1noc(C)c1CSc1nnc(-c2cc(Cl)ccc2Cl)n1N | >57 | i
COc1cccc(-c2nc3cc(C)ccc3o2)c1 | / | i
Cc1cccc(NC(=O)c2cnc3sccn3c2=O)n1 | / | i
O=C1c2ccccc2C(=O)N1CNc1ccccc1 | >57 | i
Cc1ccc(NC2=NCC(=O)N2Cc2ccc3c(c2)OCO3)c(C)c1 | >11 | i

More compounds follow:
Molecule | Bst PK mod | YjeE inh
CCOC(=O)Cn1c(=O)oc2cc(S(=O)(=O)N3CCC(N4CCCCC4)CC3)ccc21 | / | i
CC(=O)N(C(C)=O)c1cccc2c(N(C(C)=O)C(C)=O)cccc12 | / | i
CNc1nn(-c2cccc(Cl)c2)nc1N | / | i
CC(C)COC(=O)c1nnsc1NC(=O)Nc1ccccc1 | >57 | i
COc1cc(NC2c3ncccc3C(=O)N2Cc2ccco2)cc(OC)c1 (stereo not drawn) | >57 | i
COC(=O)c1cccc(Oc2nc3c(c(=O)n(C)c(=O)n3C)n2Cc2ccc(C)cc2)c1 | >57 | i
CC(=O)c1ccc2c(c1)Nc1ccccc1S2 | >57 | i

An excerpt; rates above refer to the full screens.
